# Ecoli rRNA inh = inhibitors of bacterial rRNA selective over humanized ribosomes | E. coli WT GFP vs humanized-ribosome RFP mutants, fluorescence, 24 h; active compounds read low; DMSO median 0, no signal -100 | GFP signal change (wild-type ribosome), % (no concentration beside the values) | actives 1.6% (n = 350,000) | AID 720706;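 active means significant combined selectivity score with lowered wild-type GFP, culture density cut under 30%, mutant RFP and density less affected; inactive means any of these conditions unmet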; further: one replicate is shown; some compounds called inactive have numbers as strong as hits
# MLL AF4-AF9 inh = MLL-AF4/AF9 protein interaction inhibition; inhibition, % at 10 µM; AlphaScreen, biotin-AF4 peptide binding to FLAG-AF9; actives 0.47% (n = 350,000); P42568;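 active means every replicate reaching a set inhibition limit, whatever the replicate mean, cut at about 25% in these data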;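 further: 0% = plate neutral control median and 100% = total signal loss; the record names both 10 and 1 µM as test concentration; the first replicate is given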
# Target sequence (P42568 whole entry, looked up): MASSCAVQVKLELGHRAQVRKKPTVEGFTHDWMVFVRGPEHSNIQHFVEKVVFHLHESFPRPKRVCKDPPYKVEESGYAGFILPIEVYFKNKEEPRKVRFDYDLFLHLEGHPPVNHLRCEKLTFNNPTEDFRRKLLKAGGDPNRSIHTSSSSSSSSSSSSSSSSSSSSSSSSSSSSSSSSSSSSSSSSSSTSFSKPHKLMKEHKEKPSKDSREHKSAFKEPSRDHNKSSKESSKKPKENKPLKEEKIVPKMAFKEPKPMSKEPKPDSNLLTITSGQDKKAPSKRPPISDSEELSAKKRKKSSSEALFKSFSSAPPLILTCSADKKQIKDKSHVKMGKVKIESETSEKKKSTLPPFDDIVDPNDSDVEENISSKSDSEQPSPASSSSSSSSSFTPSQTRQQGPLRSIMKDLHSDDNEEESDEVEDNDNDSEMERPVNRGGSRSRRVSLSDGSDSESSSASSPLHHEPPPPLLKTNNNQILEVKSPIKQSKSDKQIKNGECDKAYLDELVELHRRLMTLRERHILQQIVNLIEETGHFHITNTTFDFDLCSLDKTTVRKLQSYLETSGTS
# Ecoli rRNA inh OD600 = further read-out of Ecoli rRNA inh, marked with its call; OD600 change, %; measured here: OD600 growth;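 optical density of the mix in the first replicate; 0 = DMSO median and -100 = no signal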
# Ecoli rRNA inh RFP = further read-out of Ecoli rRNA inh, marked with its call; RFP signal change, %; measured here: RFP humanized mutant strains;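 first replicate; 0 = DMSO median and -100 = no signal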
# * marks the source's active call; other numbers are inactive results; i = inactive; nt = no result given. An excerpt; the hit share may differ from the screen's.
SMILES,Ecoli rRNA inh,Ecoli rRNA inh OD600,Ecoli rRNA inh RFP,MLL AF4-AF9 inh
CCCC#Cc1ccc([C@@H]2[C@H](CO)N3CCCCN(S(=O)(=O)Cc4ccccc4)C[C@@H]23)cc1,-59,-79,-11,12
Cc1noc(C)c1S(=O)(=O)N1CCCc2nc(-c3ccc(F)cc3)ccc21,-1,-22,23,1.5
CC(=O)Nc1cccc(-c2csc(C(C)(O)c3ccccc3)n2)c1 (configuration not stated),-6,-13,5.6,-4.6
C[C@@H](NC(=O)C[C@@H]1C=C[C@@H](NC(=O)C2CCC2)[C@@H](CO)O1)c1ccccc1,1,-2,-1.1,3.5
Cc1noc(C)c1NC(=O)Nc1ccc2c(c1)CC(=O)N([C@@H](C)CO)C[C@H](C)[C@@H](CN(C)Cc1ccccc1)O2,3,9,0.7,-3.1
C[C@H](CO)N1C[C@H](C)[C@H](CN(C)C(=O)Nc2ccc(F)cc2)OCCCC[C@H](C)Oc2ccc(NS(=O)(=O)c3ccccc3)cc2C1=O,1,6,1.9,-2.1
Cc1noc(C)c1NC(=O)Nc1ccc2c(c1)C(=O)N([C@H](C)CO)C[C@H](C)[C@@H](CN(C)CC1CCCCC1)O2,1,0,-1.5,-2.0
C[C@@H]1CN([C@@H](C)CO)S(=O)(=O)c2ccc(C#CCN(C)C)cc2O[C@H]1CN(C)C(=O)C1CCC1,0,-1,-2.1,-0.4
CC(C)(O)C#Cc1ccc([C@@H]2[C@H]3CN(C(=O)c4cccnc4)CCCCN3[C@H]2CO)cc1,6,14,0.9,-5.8
COc1ccccc1-c1ccccc1[C@H]1[C@@H](CO)N(C(=O)CN(C)C)[C@H]1C#N,6,10,0.3,-1.7
Cc1ccc(-c2cnc3c(c2)C(=O)N([C@@H](C)CO)C[C@H](C)[C@H](CN(C)C(=O)c2ccncc2)O3)cc1,-1,0,3.1,-1.3
O=C(Nc1ccccc1F)N[C@@H]1CC[C@H](CCNS(=O)(=O)c2ccccc2)O[C@H]1CO,0,3,-0.2,-0.8
O=C(NCC[C@@H]1CC[C@@H](NC(=O)c2cnccn2)[C@@H](CO)O1)Nc1ccc(F)cc1,0,7,-0.9,5.6
COc1ccc(S(=O)(=O)N(C)C[C@H]2OCCCC[C@H](C)Oc3ccc(NS(=O)(=O)c4ccc(C)cc4)cc3C(=O)N([C@@H](C)CO)C[C@@H]2C)cc1,-1,7,-2.1,-0.6
CCCc1cn(CC[C@@H]2CC[C@@H](NC(=O)Cc3cccnc3)[C@H](CO)O2)nn1,3,-2,-1.5,-0.6
COCC(=O)N(C)C[C@H]1Oc2cc(C#CCC(C)C)ccc2S(=O)(=O)N([C@@H](C)CO)C[C@H]1C,3,16,-1.6,2.5
C[C@H]1CN([C@@H](C)CO)C(=O)c2cc(NS(=O)(=O)c3cccs3)ccc2O[C@H]1CN(C)S(=O)(=O)c1ccc(F)cc1,0,-10,5.4,3.2
C[C@H]1CN([C@@H](C)CO)S(=O)(=O)c2ccc(-c3ccccc3)cc2O[C@H]1CN(C)C,3,-1,2.0,0.7
CC(=O)N1[C@@H]2Cn3c(ccc(C4=CCCC4)c3=O)[C@H]1[C@@H](C(=O)N[C@H](C)c1ccccc1)[C@@H]2CO,-2,-1,1.5,-2.2
O=C(C[C@H]1C[C@H]2c3cc(NS(=O)(=O)c4ccccc4)ccc3O[C@H]2[C@H](CO)O1)NC1CCCC1,-4,-26,29,-0.7
CCNC(=O)C[C@@H]1CC[C@@H](NC(=O)C2CC2)[C@H](CO)O1,-3,6,1.0,-0.6
COC(=O)[C@]12C[C@H](CC(=O)NCCCN3CCCC3=O)C(=O)N(Cc3ccccc3)C1=C[C@H](C(C)(C)C)O[C@@H]2C,2,-3,-0.6,-0.8
Cc1ccc(S(=O)(=O)Nc2ccc3c(c2)CC(=O)N([C@@H](C)CO)C[C@@H](C)[C@H](CN(C)S(=O)(=O)c2cccs2)O3)cc1,-3,-23,-1.3,-0.2
COc1cccc(CNC(=O)C[C@@H]2C=C[C@H](NS(=O)(=O)c3ccccc3OC)[C@H](CO)O2)c1,0,-7,-2.6,-0.7
CCOc1ccc(CCN2C(=S)N([C@@H](CC(C)C)CN3CCCC3CN3C(=S)NC[C@@H]3CC(C)C)C[C@@H]2CC(C)C)cc1 (some centres not stated),26,17,3.9,1.7
Cc1ccccc1NC(=O)Nc1nc(C(N)C2CCCCC2)cs1 (configuration not stated),2,-9,7.8,3.8
COc1ccc2c3c(n(C)c2c1)[C@H](CO)N(CC1CC1)CC31CCN(Cc2ccc(F)cc2)CC1,-2,-8,2.4,18
C[C@H]1CN([C@@H](C)CO)C(=O)Cc2cc(NC(=O)CCCN(C)C)ccc2O[C@@H]1CN(C)Cc1ccc(-c2ccccc2)cc1,-56,-80,-13,-0.3
C[C@H](CO)N1C[C@H](C)[C@H](CN(C)C(=O)c2ccncc2)Oc2ncc(C#CC3CCCCC3)cc2C1=O,4,5,0.0,-0.1
C[C@H](CO)N1C[C@H](C)[C@H](CN(C)Cc2ccccc2)OCc2ccccc2-c2ccccc2C1=O,1,-9,0.4,2.5
Cc1ccc(NC(=O)C2(C)CCN2C(=O)CC(c2ccccc2)c2ccccc2)cc1 (configuration not stated),-3,-5,-3.4,-1.5
CCCNC(=O)C[C@@H]1C[C@@H]2c3cc(NS(=O)(=O)c4cccc(OC)c4)ccc3O[C@@H]2[C@@H](CO)O1,-2,-4,-2.5,-1.9
C[C@H](CO)N1C[C@H](C)[C@@H](CN(C)Cc2ccc(Cl)c(Cl)c2)Oc2ccc(N(C)C)cc2CC1=O,-42,-63,6.8,40*
O=C(Nc1ccc(OCc2ccccc2)cc1)Nc1nnc([C@@H]2C[C@H](O)[C@@H](CO)O2)s1,-20,-28,-9.3,4.2
O=S(=O)(c1ccccc1F)N1CCCCN2[C@@H](CO)[C@@H](c3ccc(-c4cccnc4)cc3)[C@@H]2C1,-12,4,0.1,2.3
CCNc1nc(-c2sc(NC(=O)C(C)(C)C)nc2C)c(-n2cc(-c3ccccc3)nn2)s1,5,13,1.9,3.6
O=S1(=O)CC(N2CCN(CCO)CC2)CN1Cc1cn(Cc2cccc(Cl)c2)nn1 (configuration not stated),5,5,-2.0,-3.8
Cc1cc2nc(-c3cccc(Br)c3)c(Cc3ccsc3)n2c(C)c1Br,5,1,1.7,-0.4
Cc1noc(C)c1NC(=O)NCC[C@@H]1CC[C@@H](NC(=O)c2ccccc2)[C@H](CO)O1,3,0,1.5,2.0
COCC(=O)N(C)C[C@H]1Oc2ncc(C#C[C@H](C)O)cc2C(=O)N([C@H](C)CO)C[C@H]1C,-4,-4,-1.7,-1.3
C[C@@H]1CN([C@@H](C)CO)C(=O)Cc2cc(N(C)C)ccc2O[C@H]1CN(C)Cc1ccc(-c2ccccc2)cc1,-58,-78,-12,74*
C[C@@H]1CN([C@H](C)CO)C(=O)c2cc(C#CC3CCCCC3)cnc2O[C@H]1CN(C)C(=O)Nc1ccccc1,5,-8,8.7,3.3
CO[C@@H]1CN(C)C(=O)c2cc(NC(=O)CC(F)(F)F)ccc2OC[C@@H](C)N(C(=O)C2CCOCC2)C[C@@H]1C,2,-1,0.9,-1.3
CN1OC[C@@H]2CN(C(=O)c3cccc4ccccc34)[C@H](c3ccc(N4CCCCC4)cc3)C[C@@H]21,-9,-13,7.4,7.7
C[C@@H]1CN([C@@H](C)CO)C(=O)Cc2cc(NC(=O)Nc3ccc4c(c3)OCO4)ccc2O[C@@H]1CN(C)Cc1ccc2c(c1)OCO2,3,-12,11,4.9
Cc1ccc(OCCNC(=O)[C@H]2O[C@@H](n3cnc4c(N)ncnc43)[C@H](O)[C@@H]2O)cc1C,-2,-6,1.7,0.5
C[C@@H]1CCCCO[C@@H](CN(C)C(=O)Nc2ccccc2)[C@@H](C)CN([C@@H](C)CO)C(=O)c2cc(NC(=O)Nc3cccc4ccccc34)ccc2O1,0,11,0.8,-1.8
C/C=C/c1ccccc1[C@H]1[C@H](C#N)N(c2nc(CC)cs2)[C@H]1CO,-4,1,0.1,5.1
CN1CCN(C(=O)C[C@@H]2CC[C@@H]3[C@H](COC[C@H](O)CN3C(=O)C3CCOCC3)O2)CC1,8,16,22,-9.1
COc1ccc(Cc2c(-c3ccc(C)cc3)nc3cc(C)c(Br)c(C)n23)c(C)c1,-1,2,1.5,1.7
COc1ccccc1N1CCN(S(=O)(=O)CCNC(=O)CC2CCCC2)CC1,0,-8,-1.8,-2.5
COc1ccc(CNC(=O)C[C@@H]2CC[C@H](NC(=O)CN(C)C)[C@@H](CO)O2)cc1,1,7,1.1,-1.9
COCCCNC(=O)C[C@@H]1C[C@@]2(C(=O)OC)CCCCC=C2N(CCC2=CCCCC2)C1=O,-20,-24,0.3,-0.7
CN(C)C(=O)c1cccc(-c2ccc([C@H]3[C@@H](C#N)N(C(=O)C4CC4)[C@H]3CO)cc2)c1,0,-3,1.2,-1.3
CCOC(=O)c1cc2c(=Cc3ccc(N(C)C)cc3)c3ccccc3n2[n+]1C,-53,-74,68,52*
C[C@H](CO)N1C[C@H](C)[C@H](CN(C)S(C)(=O)=O)OCCCC[C@H](C)Oc2ccc(NS(=O)(=O)c3ccccc3)cc2C1=O,-3,-6,3.7,1.4
Cc1ccc(C2(c3ccccc3)NC(=O)N(CC(=O)NCc3ccccc3)C2=O)cc1C (configuration not stated),-2,-44,-1.8,-3.4
O=C(C[C@@H]1CC[C@@H]2[C@H](COC[C@@H](O)CN2Cc2ccc(C(F)(F)F)cc2)O1)N1CCc2ccccc2C1,i,nt,nt,4.4
C[C@H]1CN([C@@H](C)CO)C(=O)c2c(c3ccccc3n2C)-c2ccccc2CO[C@@H]1CN(C)Cc1ccccc1C(F)(F)F,0,10,-4.8,0.6
COc1cccc(-c2ccc([C@H]3[C@H](CO)N4C(=O)CN(C(=O)C5CCOCC5)C[C@@H]34)cc2)c1,6,1,-1.6,-1.9

# Next section.
SMILES,Ecoli rRNA inh,Ecoli rRNA inh OD600,Ecoli rRNA inh RFP,MLL AF4-AF9 inh
CCCN(C)C[C@@H]1Oc2cc(C#CCc3ccccc3)ccc2S(=O)(=O)N([C@H](C)CO)C[C@@H]1C,2,-3,0.8,15
COCc1cn(CC[C@H]2CC[C@H](NC(=O)Nc3ccc(OC)cc3)[C@H](CO)O2)nn1,5,-4,0.6,15
Cc1noc(C)c1S(=O)(=O)N(C)C[C@H]1OCCCC[C@@H](C)Oc2ccc(NC(=O)NC(C)C)cc2C(=O)N([C@H](C)CO)C[C@@H]1C,4,9,2.1,4.5
C[C@@H]1CN([C@@H](C)CO)C(=O)CCCn2nncc2CO[C@H]1CN(C)C(=O)Nc1ccc(C(C)(C)C)cc1,2,-2,-3.1,0.4
CCCN(C)C[C@@H]1Oc2cc(-c3ccccc3C)ccc2S(=O)(=O)N([C@H](C)CO)C[C@@H]1C,3,-1,-0.5,4.4
CCCC#Cc1ccc([C@H]2[C@@H](CO)N3C(=O)CN(S(=O)(=O)Cc4ccccc4)C[C@@H]23)cc1,-13,-52,23,5.3
Cc1ccc(S(=O)(=O)N(C)C[C@H]2Oc3ccc(NC(=O)CCCCCC(=O)Nc4ccccc4N)cc3C(=O)N([C@@H](C)CO)C[C@@H]2C)cc1,-5,-4,-1.2,-0.7

# A different layout for part of the listing above.
SMILES | Ecoli rRNA inh | Ecoli rRNA inh OD600 | Ecoli rRNA inh RFP | MLL AF4-AF9 inh
COCc1cn(CC[C@H]2CC[C@H](NC(=O)Nc3ccc(OC)cc3)[C@H](CO)O2)nn1 | 5 | -4 | 0.6 | 15
Cc1noc(C)c1S(=O)(=O)N(C)C[C@H]1OCCCC[C@@H](C)Oc2ccc(NC(=O)NC(C)C)cc2C(=O)N([C@H](C)CO)C[C@@H]1C | 4 | 9 | 2.1 | 4.5
C[C@@H]1CN([C@@H](C)CO)C(=O)CCCn2nncc2CO[C@H]1CN(C)C(=O)Nc1ccc(C(C)(C)C)cc1 | 2 | -2 | -3.1 | 0.4
CCCN(C)C[C@@H]1Oc2cc(-c3ccccc3C)ccc2S(=O)(=O)N([C@H](C)CO)C[C@@H]1C | 3 | -1 | -0.5 | 4.4
CCCC#Cc1ccc([C@H]2[C@@H](CO)N3C(=O)CN(S(=O)(=O)Cc4ccccc4)C[C@@H]23)cc1 | -13 | -52 | 23 | 5.3
Cc1ccc(S(=O)(=O)N(C)C[C@H]2Oc3ccc(NC(=O)CCCCCC(=O)Nc4ccccc4N)cc3C(=O)N([C@@H](C)CO)C[C@@H]2C)cc1 | -5 | -4 | -1.2 | -0.7

# Screening results deposited in PubChem BioAssay by Broad Institute.
